HCMV UL50-53 inh = inhibitors of HCMV UL50-UL53 nuclear egress complex interaction | AID 1918969 | inhibition, % (test concentration not listed) | HTRF UL50-UL53 interaction, normalized percent inhibition | 190,000 compounds, 0.15% hits;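 active = both replicates at 50% or more, plus weaker picks with an unusually low signal ratio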;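 note: stock transfer was 100 nL into about 20 µL; 0% = negative control wells and 100% = wells with untagged competitor protein; inactives centre near -12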
Sa growth 42C = inhibitors of Staphylococcus aureus growth at 42 °C. S. aureus RN4220 growth, OD600, 20 h; hits give low values. relative growth, % (concentration not given with the values). 170,000 compounds, 0.53% hits. AID 720641;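 active = growth at 42 °C up to 50% and 20 or more points under that at 30 °C, or under 10% at both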;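 note: 300 nL library stock went into each well; scaled to the means of positive and negative controls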
GIV-Gai inh = blocks GIV peptide binding to rat Galpha-i3 | 210,000 compounds, 0.42% hits | P08753 | Galpha-i3/FITC-GIV peptide fluorescence polarization, 90 min; hits give low values; scaled: aluminum fluoride 0%, vehicle 100% | percent of control (FP), % (concentration not given with the values) | AID 1224905;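 active = replicate mean at 85% of control or lower, very high polarization wells dropped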;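 note: wells of about 15 µL received 100 nL stock; the first replicate is given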
Target sequence (P08753 whole entry, looked up): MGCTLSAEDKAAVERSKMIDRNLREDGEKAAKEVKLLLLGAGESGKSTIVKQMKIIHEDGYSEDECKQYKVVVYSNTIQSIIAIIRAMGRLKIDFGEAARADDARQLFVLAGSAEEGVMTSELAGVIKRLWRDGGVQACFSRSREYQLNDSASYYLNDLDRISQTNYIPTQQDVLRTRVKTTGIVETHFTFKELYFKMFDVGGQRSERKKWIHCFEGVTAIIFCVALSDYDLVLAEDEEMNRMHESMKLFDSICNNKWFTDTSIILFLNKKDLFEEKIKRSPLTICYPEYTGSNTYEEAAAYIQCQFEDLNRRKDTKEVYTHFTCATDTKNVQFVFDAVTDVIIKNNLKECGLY
Sa growth 42C second temp = further read-out of Sa growth 42C, marked with its call; relative growth, %; measured here: growth at 30 °C;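 optical density after 20 h as mean of two plates; 100% = untreated growth and lower means inhibition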
* = called active by the depositor; x = no result given; & = joins results of further samples.

nr	Structure	GIV-Gai inh	HCMV UL50-53 inh	Sa growth 42C second temp	Sa growth 42C
1	c1ccc2c(c1)OCC(CSc1nnc3c(n1)[nH]c1ccccc13)O2 (stereo not given)	104	-12	82	87
2	CCc1cccc(NS(=O)(=O)c2c(C)n[nH]c2C)c1	95	-8	87	88
3	Cc1oc2ccc(O)c(CN3CCOCC3)c2c1C(=O)Nc1cccc(Cl)c1C	100	-10	85	104
4	CN(C)S(=O)(=O)c1ccc(S(=O)(=O)N2CCC(c3nc4ccccc4s3)CC2)cc1	106	15	83	80
5	COc1ccc(NC(=O)c2sc3nc4c(cc3c2N)CCCCCC4)cc1Cl	103	-41	90	86
6	Clc1ccc(C2Oc3ccccc3C3CC(c4ccc(Br)cc4)=NN32)cc1 (stereo not given)	96	-14	x	x
7	COc1ccc(CNC(=O)c2ccc3nc(CCc4ccccc4)oc3c2)c(OC)c1	103	x	103	131
8	Cc1c(C(=O)N2CCCc3ccccc32)oc2ccc(S(=O)(=O)N3CCOCC3)cc12	102	3	91	106
9	COc1cccc(-n2c(=O)c3sc4ccccc4c3n(Cc3c(F)cccc3Cl)c2=O)c1	95	-9	91	110
10	Cc1cc(N2CCOCC2)nc2ccc(NC(=O)NC(C)C)cc12	102	-14	x	x
11	COc1ccc(C(=O)N=S2CCN(C(=O)c3ccc(Cl)cc3)CC2)cc1	110	-2	95	99
12	N=C1S/C(=C\c2cc3c(cc2Br)OCO3)C(=O)N1c1ccc2c(c1)OCO2	109	-23	x	x
13	Cc1ccc2nc(N3CCc4ccccc43)c3nncn3c2c1	105	6	94	100
14	O=C1CCCN2N=C(SCC(=O)N3CCCC3)SC2=N1	100	x	62	93
15	COC(=O)C1=NNC2(c3ccc(C)cc3)C(=O)N(c3ccc(C)cc3)C(=O)C12 (stereo not given)	112	-6	84	72
16	CCOC(=O)N1CCC2(CC1)OC(=O)C(C)=C2C(=O)NCc1ccccc1OC	106	x	94	120
17	Cc1ccc(S(=O)(=O)NCc2ccc(C(=O)NCCCN3CCN(C)CC3)cc2)cc1	98	1	97	121
18	CCN1CCN(c2csc3ccc(Cl)cc3c2=O)CC1	109	x	90	105
19	COc1ccccc1-c1nnc(C2CCN(C(=O)c3cccc(C)c3)CC2)o1	105	-35	85	103
20	COc1ccc(-n2ncc3c(=O)n(CC(=O)NC(C)C)cnc32)cc1	104	-3	92	109
21	COc1ccc(C2CC(=O)C3=C(C2)NC(C)=C(C(=O)OC2CCCC2)C3c2cccc([N+](=O)[O-])c2)cc1OC (stereo not given)	101	-10	x	x
22	CCOc1cc(C=C2C(=O)N(C)C(=O)N(C)C2=O)ccc1OCCBr	103	-5	x	x
23	Nc1nncn1C(=O)CCCN1C(=O)c2ccccc2C1=O	97	-32	92	112
24	CCOC(=O)N1CCN(C(=O)c2ccc3c(c2)N(Cc2ccccc2F)C(=O)c2ccccc2S3(=O)=O)CC1	99	-33	90	101
25	CCCCNC(=O)CSc1nc2cc3c(cc2c(=O)n1Cc1ccc(C(=O)NCCc2ccc(OC)c(OC)c2)cc1)OCO3	105	x	86	94
26	CCc1c(C#N)c(SCC(=O)c2ccc3c(c2)OCO3)nc2c1C(=O)CC(C)(C)C2	102	x	80	93
27	CC1CC(C)CN(C(=O)Cc2c(C(=O)O)[nH]c3ccc(Cl)cc23)C1 (stereo not given)	103	x	0	4
28	CC1CCCN(CC(=O)O)C1 (stereo not given)	101	-9	94	100
29	N#CC(Cc1ccccc1)Sc1nnc(-c2cccs2)n1Cc1ccccc1 (stereo not given)	x	-14	97	98
30	O=C(O)C1=CCCNC1	98	-6&-6	x	x
31	CC(NC(=O)C1CCN(S(=O)(=O)c2ccc(F)cc2)CC1)c1ccccc1 (stereo not given)	115	-3	110	109
32	CCCCN(C)S(=O)(=O)c1cc2c3c(c1)CCC(=O)N3CCC2	102	-13	81	98
33	Cn1cccc1Cc1nnc(SCC(=O)NCC2CCCO2)n1-c1ccc(Cl)cc1 (stereo not given)	96	-27	x	x
34	COc1cc(C(=O)Nc2cc(C)c(O)c(-c3nc4ccccc4s3)c2)cc(OC)c1OC	99	-26	94	95
35	CC(C)c1cc(=O)n2[nH]c(CNc3ccccc3)nc2n1	104	-21	x	x
36	CSc1nc(N)nc(C2COc3ccccc3O2)n1 (stereo not given)	100	-15	85	119
37	COC(=O)c1ccccc1NC(=O)N1CCC(n2cnc3cccnc32)CC1	99	-2	x	x
38	COc1ccc(N2CCN(S(=O)(=O)c3cc(Br)cc4c3N(C(C)=O)C(C)C4)CC2)cc1 (stereo not given)	104	1	107	118
39	CCNC(=O)C1CCCN1C(=O)OCC(C)C (stereo not given)	91	-2	110	83
40	Cc1nc(N=C(N)N)nc2cc3c(cc12)OCO3	101	3	88	100
41	COc1ccc(-n2nnc3c(=O)n(Cc4cccc(C(F)(F)F)c4)cnc32)cc1	98	x	90	110
42	COc1ccc(S(=O)(=O)N(C(=O)C(C)C)c2ccc3oc(=O)sc3c2)cc1	109	-11	44	53
43	Cc1cc(C)c(NC(=O)CSC2=Nc3ccccc3N=C(c3ccccn3)C2)c(C)c1	101	-11	x	x
44	COc1ccccc1C1(C#N)CCOCC1	107	-2	99	103
45	Cc1cc(Nc2cccc(Cl)c2)nc2ccc(NC(=O)c3cccnc3)cc12	103	x	52	102
46	CCNc1nc(-c2ccc(OC)cc2OC)cs1	x	-26	82	114
47	Cc1cc(NC(=O)CCN2C(=O)C3C4C=CC(C4)C3C2=O)c(C)cc1Br (stereo not given)	100	-6	94	106
48	CC1Cc2cc(C(=O)CSc3nnc(-c4ccco4)n3-c3ccccc3)ccc2N1S(C)(=O)=O (stereo not given)	x	-21	91	77
49	Cc1nc(Nc2ccc(F)cc2)c2c(C)noc2n1	99	-6	x	x
50	CCC(C)(NC(=O)c1ccccn1)C(=O)NC1CCCC1 (stereo not given)	92	-10	86	105
51	CCOC(=O)c1[nH]c(C)c(Cc2ccc(OCC)cc2)c1C	96	-31	94	91
52	Cc1cc(-c2cc(S(=O)(=O)Nc3cc(Cl)ccc3C)c(C)s2)on1	104	-13	x	x
53	Cc1cc(C)c(S(=O)(=O)N2CCCC2c2ccc(F)cc2)cc1C (stereo not given)	104	20	x	x
54	CCCS(=O)(=O)N1CCC(N2CCN(Cc3ccccc3)C(=O)C2=O)CC1	95	-1	x	x
55	CCC(=O)Nc1sc(C(=O)N2CCCCC2)c(C)c1C#N	x	8	91	83
56	Cc1ccc(S(=O)(=O)/N=C(/c2ccccc2)N2CCOCC2)cc1	102	x	86	112
57	CCc1ccc(CNC(=O)c2ccc3c(c2)ncn3C2CCCC2)cc1	102	x	71	115
58	CC(=O)N1CCN(S(=O)(=O)c2cccc(C(=O)OCc3csc(-c4ccccc4)n3)c2)CC1	x	-12	87	88
59	OC(CN1c2ccccc2Sc2ccccc21)Cn1nnc2ccccc21 (stereo not given)	102	-8	102	126
60	Cc1ccc(-c2nnc(Nc3ccc(Br)cc3)c3ccccc23)cc1S(=O)(=O)N1CCOCC1	104	x	105	140

(further entries)
nr	Structure	GIV-Gai inh	HCMV UL50-53 inh	Sa growth 42C second temp	Sa growth 42C
61	CCCCSc1nc(O)c(CCC(C)C)c(=O)[nH]1	105	-11	96	125
62	O=C(CSC1=NC(=O)C(Cc2ccccc2)C(=O)N1)Nc1nc(-c2ccc(Br)cc2)cs1 (stereo not given)	102	-24	x	x
63	Cc1ccc(CSc2nnc3n(CC(C)C)c(=O)c4cc(F)ccc4n23)cc1	106	-7	x	x
64	COc1cc(/C=C2\SC(=Nc3cc(C)cc(C)c3)NC2=O)cc([N+](=O)[O-])c1O	106	-66	x	x
65	O=C(COCc1cc(-c2ccc(F)cc2)on1)Nc1cccc(Cl)c1Cl	105	x	86	105
66	C=CCn1c(SCC(=O)Nc2ccc(OC)cc2)nc2cc3ccccc3cc2c1=O	111	6	94	89
67	Cc1ccc(S(=O)(=O)Nc2ccc(-c3ccc(N4CCOCC4)nn3)cc2)cc1C	105	-46	x	x
68	Cc1ccc(-c2noc(-c3ccccc3NC(=O)C3CC(=O)N(c4ccc(C)cc4)C3)n2)cc1 (stereo not given)	93&113	5&-13	94	76
69	COc1ccc(-c2cn3cccnc3n2)cc1NC(=O)C1c2ccccc2Oc2ccccc21	109	4	x	x
70	Cc1ccc(CNC(=O)C2c3ccccc3Oc3ccccc32)cc1	98	x	82	93
71	CCN(CC)CCNC(=O)CN1N=C(c2ccc(OC)cc2)CCC1=O	104	x	90	89
72	Cn1cnnc1Sc1ccc(Cl)cc1NC(=O)C1CCCCC1	x	-22	94	84
73	CC1=C(C(=O)Nc2ccccc2)Oc2ccccc2N1	x	-13	76	71
74	O=C(Nc1sc2c(c1C(=O)NCC1CCCO1)CCCC2)c1csnn1 (stereo not given)	99	42	x	x
75	CN1C(C(=O)c2ccccc2)=C(OC(=O)CN2C(=O)c3ccccc3C2=O)c2ccccc2S1(=O)=O	100	-28	x	x
76	COc1cccc(NC(=O)CSc2nnc(-c3cccc(OC)c3)o2)c1	102	-4	97	117
77	CCOc1cc(C=C2C(=O)NC(=S)NC2=O)ccc1OCCOc1ccc(C(C)CC)cc1 (stereo not given)	106	x	80	85
78	Fc1cnc(N2CCOCC2)nc1N1CCc2ccccc21	99	x	87	107
79	CN(C)C=Nc1ccc(OCc2ccccc2)cc1	x	-23	91	101
80	CCOc1ccc(OCC)c(NC(=O)CCC(=O)N2CCOc3ccccc32)c1	101	6	90	107
81	O=C(COc1ccc(Cl)cc1)Nc1nnc(S(=O)(=O)N2CCc3ccccc32)s1	107	-17	71	93
82	O=C(O)CSCc1cccs1	x	-35	83	106
83	CCN1CCN(C(c2ccc(OC)cc2)C(O)C(=O)c2c[nH]c3ccccc23)CC1 (stereo not given)	x	-12	94	90
84	C=CCn1nnnc1SCC(=O)Nc1ccc(OC)cc1	98	-34	88	91
85	Cc1ccc(Nc2nc(-c3c(C)nc4ccccn34)cs2)c(C)c1	x	-9	22	44
86	CC(C)(Oc1ccc(Cl)cc1)C(=O)NN	99	-39	91	90
87	O=C(Cn1nc2c(cc1=O)CCCC2)Nc1ccccc1C(F)(F)F	102	x	86	98
88	Cc1ccc(C(=O)n2nc(C)c(S(=O)(=O)N3CCCCCC3)c2C)cc1	104	x	94	100
89	CCOC(=O)Nc1sc2c(c1C#N)CCCC2	x	-38	81	106
90	Cc1cc(C)c(C#N)c(SCCC#N)n1	x	-19	79	92

3 structures from above, arranged by number of heavy atoms, ascending:
nr	Structure	GIV-Gai inh	HCMV UL50-53 inh	Sa growth 42C second temp	Sa growth 42C
64	COc1cc(/C=C2\SC(=Nc3cc(C)cc(C)c3)NC2=O)cc([N+](=O)[O-])c1O	106	-66	x	x
80	CCOc1ccc(OCC)c(NC(=O)CCC(=O)N2CCOc3ccccc32)c1	101	6	90	107
69	COc1ccc(-c2cn3cccnc3n2)cc1NC(=O)C1c2ccccc2Oc2ccccc21	109	4	x	x

Other records
nr	Structure	GIV-Gai inh	HCMV UL50-53 inh	Sa growth 42C second temp	Sa growth 42C
91	O=C(Cn1nc(-c2ccccc2)nc(Cc2ccccc2)c1=O)Nc1ccccc1	101	x	93	115
92	O=[n+]1c2c(n([O-])c3cc(Br)ccc31)CCCC2	106	-78	90	96
93	O=C1NC2(CCCC2)C(=O)N1Cc1cc(=O)n2ccsc2n1	x	-11	97	104
94	CC(C)(C)OC(=O)N1CCC(c2c(C(=O)N3CCN(c4ccccn4)CC3)cnn2-c2ccccc2Cl)CC1	105	x	89	106
95	Cc1ccc(NC(=O)c2sc3nc4c(cc3c2N)CN(Cc2ccccc2)CC4)cc1	111	-23	85	94

Five entries out of the list above, ordered by the number in Sa growth 42C second temp, descending.
cpd	SMILES	GIV-Gai inh	Sa growth 42C second temp	Sa growth 42C
93	O=C1NC2(CCCC2)C(=O)N1Cc1cc(=O)n2ccsc2n1	x	97	104
91	O=C(Cn1nc(-c2ccccc2)nc(Cc2ccccc2)c1=O)Nc1ccccc1	101	93	115
92	O=[n+]1c2c(n([O-])c3cc(Br)ccc31)CCCC2	106	90	96
94	CC(C)(C)OC(=O)N1CCC(c2c(C(=O)N3CCN(c4ccccn4)CC3)cnn2-c2ccccc2Cl)CC1	105	89	106
95	Cc1ccc(NC(=O)c2sc3nc4c(cc3c2N)CN(Cc2ccccc2)CC4)cc1	111	85	94

Random excerpt: five compounds from above, in no set order.
nr	Structure	GIV-Gai inh	HCMV UL50-53 inh	Sa growth 42C second temp	Sa growth 42C
95	Cc1ccc(NC(=O)c2sc3nc4c(cc3c2N)CN(Cc2ccccc2)CC4)cc1	111	-23	85	94
93	O=C1NC2(CCCC2)C(=O)N1Cc1cc(=O)n2ccsc2n1	x	-11	97	104
92	O=[n+]1c2c(n([O-])c3cc(Br)ccc31)CCCC2	106	-78	90	96
94	CC(C)(C)OC(=O)N1CCC(c2c(C(=O)N3CCN(c4ccccn4)CC3)cnn2-c2ccccc2Cl)CC1	105	x	89	106
91	O=C(Cn1nc(-c2ccccc2)nc(Cc2ccccc2)c1=O)Nc1ccccc1	101	x	93	115

Assay outcomes (PubChem BioAssay)
